# Bioassay records as filed in PubChem.
# Cruzain noTriton – inhibitors of Trypanosoma cruzi cruzain without detergent; P25779; purified cruzain, Z-FR-AMC fluorescence, no detergent; Potency, µM, for the others: max response, negative = inhibition, hits mostly inhibitors; 200,000 tested, 2.3% active; AID 1476; active = well fitted curve in the direction sought with a large enough effect; inconclusive = small, poorly fitted or top-dose-only effect, or another doubt; inactive = no such curve, though single readings can be large; an effect the other way counts as inactive or inconclusive;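 also: plate controls were enzyme without inhibitor for no effect and buffer without enzyme for full effect; nearly all actives have a fitted effect of over 40% in size; top concentration of the series not given in the record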
# Target sequence (P25779 123-467 limits assumed): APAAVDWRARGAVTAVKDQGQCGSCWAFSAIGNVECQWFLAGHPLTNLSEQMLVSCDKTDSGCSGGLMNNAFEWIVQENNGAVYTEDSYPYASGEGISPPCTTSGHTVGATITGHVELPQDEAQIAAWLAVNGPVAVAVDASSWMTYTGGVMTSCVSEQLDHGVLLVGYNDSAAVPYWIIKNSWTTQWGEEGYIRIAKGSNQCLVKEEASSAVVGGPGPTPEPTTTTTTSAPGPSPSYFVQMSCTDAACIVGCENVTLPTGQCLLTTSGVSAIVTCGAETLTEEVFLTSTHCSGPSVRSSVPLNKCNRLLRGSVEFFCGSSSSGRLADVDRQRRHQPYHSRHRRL
#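 Purified cruzain at 1.5 nM, pre-incubated 15 min with compound at room temperature in 100 mM sodium acetate pH 5.5, 5 mM DTT, 0.00005% Triton X-100. Reaction started with 2 uM Z-FR-AMC; AMC fluorescence increase over 60 s gives rate.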
# StopGo reporter – FMDV 2A StopGo reporter, luciferase signal | 410,000 tested, 1.2% active | Potency, µM (highest dose often 57.9 µM), without a hit: at the top dose signal change, negative = less light | human cells with a luciferase reporter of 2A StopGo recoding; control for the full effect not named in the record | AID 1159524; active = well fitted falling curve with a large enough effect; inconclusive = small, poorly fitted or top-dose-only effect; inactive = no such curve, though single readings can be large or run the other way; tested in HEK293T cells; also: % is scaled to controls: 0 for no effect and ±100 for the full control effect; nearly all actives have a fitted effect of over 45% in size; luciferase light after 4 h
# NS1 inh – influenza NS1 inhibition; S. cerevisiae slowed by influenza A NS1, growth recovery by OD600; Potency, µM (titrated, usually from 46.1 µM), for the others: at the top dose activity, positive = more growth; 270,000 tested, 0.4% active; AID 2326; also: actives are rising curves; nearly all actives have a fitted effect of over 50% in size
#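 A cell-based growth assay was used: compounds that relieve NS1-induced slow growth of budding yeast raise OD600. Assay medium was yeast nitrogen base with ammonium sulphate and -URA supplement, pH 6.0, with 2% galactose.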
# Cruzain Triton – cruzain (T. cruzi) inhibition with detergent; P25779; purified cruzain, Z-FR-AMC fluorescence, 0.01% Triton; Potency, µM, for inactives: max response, negative = inhibition, usual class: inhibitors; 200,000 tested, 0.43% active; active = well fitted curve in the direction sought with a large enough effect; inconclusive = small, poorly fitted or top-dose-only effect, or another doubt; inactive = no such curve, though single readings can be large; an effect the other way counts as inactive or inconclusive;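 also: plate controls were neutral wells for no effect and buffer without enzyme for full effect; nearly all actives have a fitted effect of over 40% in size; top concentration of the series not given in the record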
#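 Cruzain (1.5 nM) preincubated 15 min at RT with compound in 100 mM sodium acetate pH 5.5, 5 mM DTT, 0.01% Triton X-100. Reaction started with 2 uM Z-FR-AMC; AMC fluorescence (ex 360/em 450 nm) change over 60 s gave rate.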
# SARS PLpro yeast – blocks SARS-CoV papain-like protease in a yeast assay | S. cerevisiae expressing SARS-CoV PLpro, growth rescue; control for the full effect not named in the record | Potency, µM (series often up to 32.9 µM), inactives show at the highest dose activity, positive = growth rescue | 330,000 tested, 0.19% active; also: 0% is about no effect; nearly all actives have a fitted effect of over 55% in size; growth read by luminescence after 48 h
# RE007 growth inh – less growth of the S. pombe RE007 Vpr strain; S. pombe RE007 Vpr strain, BacTiter-Glo ATP luminescence, 24 h; control for the full effect not named in the record; Potency, µM (top dose mostly 92.2 µM), without a hit: at the highest dose activity change, negative = less growth; 360,000 tested, 0.21% active; AID 651644; active = well fitted falling curve with a large enough effect; inconclusive = small, poorly fitted or top-dose-only effect; inactive = no such curve, though single readings can be large or run the other way;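 also: % is scaled to controls: 0 for no effect and ±100 for the full control effect; nearly all actives have a fitted effect of over 50% in size; the assay follows cell death caused by Vpr and the record does not say whether a fall means rescue or toxicity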
#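 Fission yeast RE007 carrying one integrated HIV-1 vpr copy, seeded at OD 0.01 in PMG+AL medium with 23 nL pinned compound. Grown 24 h at 30 degrees; viability read by BacTiter-Glo luminescence after 5 min.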
# LASV entry inh – blocks Lassa virus binding to or entry into cells; Lassa virus pseudotype entry inhibition, cell reporter; control for the full effect not named in the record; Potency, µM (top dose mostly 37.9 µM), for inactives: at the highest dose activity change, negative = inhibition, usual class: inhibitors; 300,000 tested, 1.2% active; active means well fitted inhibition curve with a large enough effect; inconclusive means small, poorly fitted or top-dose-only effect, or effect the other way; inactive means flat fitted curve, though single readings scatter; tested in HEK293 cells; also: % is scaled to controls: 0 for no effect and ±100 for the full control effect; nearly all actives have a fitted effect of over 50% in size; luciferase read-out
# MARV entry inh – Marburg virus entry inhibition | Marburg virus pseudotyped entry inhibition, cell reporter; control for the full effect not named in the record; about a third of the inactives were read at about 46 µM | Potency, µM (top dose mostly 37.8 µM), for inactives: top-dose activity change, negative = inhibition, hits mostly inhibitors | 300,000 tested, 1.8% active | AID 540276; active = well fitted inhibition curve with a large enough effect; inconclusive = small, poorly fitted or top-dose-only effect, or effect the other way; inactive = flat fitted curve, though single readings scatter; tested in HEK293 cells; about a fifth of its hits are not listed in these tables; also: % is scaled to controls: 0 for no effect and ±100 for the full control effect; luciferase read-out
# * marks the source's active call; other numbers are inactive results; ? = inconclusive; . = no result given; & = joins results of further samples; [ ] = remark or other dose. Unless noted, calls follow the shape of the dose curve; as a rule, active means well fitted rising curve with a large enough effect; inconclusive means small, poorly fitted or top-dose-only effect; inactive means no such curve, though single readings can be large or run the other way. Potency is read from the fitted curve at half-maximal effect. The order is random; about 4.6% have a hit in one of these screens.
SMILES,Cruzain noTriton,StopGo reporter,NS1 inh,Cruzain Triton,SARS PLpro yeast,RE007 growth inh,LASV entry inh,MARV entry inh
COc1ccc(C(=O)NC2=NCCS2)cc1,.,6%,-5%,.,-1%,-4%,29%[46.1 µM],?
CCN1C(=O)N/C(=C/c2cc(C)n(Cc3ccccc3)c2C)C1=O,-20%,7%,22%,-4.9%,-10%,8%,?,?
Cn1c(=O)[nH]c(=O)c2c1nc(NCc1ccccc1)n2CCCc1ccccc1,-8%,?,-2%,4.3%,4%,-7%,-6%,?
CC(=O)n1nc(-c2cccnc2)nc1NCc1cccs1,.,10%,-5%,.,-1%,-7%,.,.
Cc1ccc(NS(=O)(=O)c2cc(C(=O)Nc3cccc(N(C)S(C)(=O)=O)c3)ccc2C)c(C)c1,11%,-5%,?,-5.6%,-3%,-9%,?,?
N#CC1=C(N)Oc2n[nH]c(-c3cccs3)c2C1c1ccsc1 (stereo not given),-24%,-18%,-6%,-13%,-10%,-18%,5%,-2%
O=c1cc(Cc2ccccc2)[nH]c(=S)[nH]1,-11%,-9%,9%,-2.4%,-15%,0%,4%,?
O=C(c1cc(Cl)nc2ccccc12)N1CCN(S(=O)(=O)c2cccc(C(F)(F)F)c2)CC1,.,-3%,.,.,4%,0%,6%,-22%[46.1 µM]
CCC(=O)NC1(C(F)(F)F)C(=O)Nc2c1c(=O)[nH]c(=O)n2Cc1ccco1 (stereo not given),-4%,3%,10%,1.4%,4%,-3%,0%,4%
COc1ccc(NC(=O)c2sc3nc(-c4cccnc4)ccc3c2N)cc1,.,0%,9%,.,0%,-4%,-8%,-24%[46.1 µM]
Cc1cccc(NC(=O)COC(=O)c2ccccc2SCC(=O)N2CCCC2)c1,.,-9%,8%,.,2%,?,-2%,?
CC(=O)Nc1cccc(NC(=O)c2c(-c3ccccc3)c(-c3ccccc3)nn(C)c2=O)c1,?,7%,.,-0.4%,.,.,-8%[46.1 µM],5%[46.1 µM]
COc1ccc(OC)c(-c2nc(CN3CCCCC3c3cccnc3)c(C)o2)c1 (stereo not given),.,-12%,1%,.,-1%,2%,-1%,?
O=C(CC1C(=O)NCCN1Cc1ccccc1C(F)(F)F)NC1CCCC1 (stereo not given),.,0%,18%,.,1%,-12%,7%,-2%
O=C(O)c1cc(NS(=O)(=O)c2ccc(NCc3ccccc3)c([N+](=O)[O-])c2)cc(C(=O)O)c1,.,7%,14µM*,.,9%,9%,.,.
CCn1c(COc2ccc3c(c2)OCO3)nnc1SCC(=O)O,10%,-17%,7%[9.22 µM],2.7%,10%,28%,3%,0%
CCOc1ccc2nc(NC(=O)CSc3nnnn3C3CCCCC3)sc2c1,12%,.,-39%,-8.3%,-5%,16%,-19%,-5%&-22%
CN(C)C(=O)c1cc(C(=O)c2ccc(F)cc2C(F)(F)F)c[nH]1,.,-24%,1%,.,2%,4%,-13%[46.1 µM],?
COc1ccc(-n2nc(C(=O)NCC(=O)N3CCC4(CC3)OCCO4)c3ccccc3c2=O)c(OC)c1,.,13%,-14%,.,-1%,-22%,1%,?
CCOC(=O)C1(CC2CCCCO2)CCN(C(=O)Nc2ccc(C(=O)OC)cc2)CC1 (stereo not given),.,-21%,-4%,.,-1%,19%,.,.
Nn1c(Cc2cccc3ccccc23)nnc1SCc1c(Cl)cccc1Cl,2%,0%,16%,-6.1%,-19%,-1%,?,?
CCOC(=O)N1CCN(Cc2ccccc2F)CC1,10%,-3%,1%,1.9%,2%,6%,0%,11%
Cc1ccccc1-n1nc(C)c2c(C(=O)NN)cc(-c3ccncc3)nc21,.,-13%,2%,.,0%,-1%,-14%,-17%[14.2 µM]
Cc1cc(C)c(S(=O)(=O)N2CCC(C(N)=O)CC2)cc1C,4%,.,-13%,1.4%,-6%,9%,6%,7%
COc1cccc(-c2csc(N3CCN(C(=O)Nc4ccc(Cl)cc4)CC3)n2)c1,.,?,-42%,.,-4%,-15%,.,.
Cc1cccc(NS(=O)(=O)c2ccc3oc(=O)ccc3c2)c1C,.,-14%,-61%,.,-4%,1%,.,.
Cn1c(SCC(=O)NCC2CCCO2)ncc(C(=O)Nc2ccc(Cl)cc2)c1=O (stereo not given),.,?,.,.,0%,-12%,-1%,25%[46.1 µM]
CN(C)CCCN(C(=O)c1cc2cc([N+](=O)[O-])ccc2s1)c1nc2cc3c(cc2s1)OCCO3,.,40µM*,.,.,-2%,28%,?,?
CC(=O)Nc1ccc(S(=O)(=O)O)c(OC(C)=O)c1,.,-16%,.,.,.,4%,22%[46.1 µM],21%[46.1 µM]
CCS(=O)(=O)Nc1cccc(C2=NN(C(C)=O)C(c3cccs3)C2)c1 (stereo not given),.,-6%,-2%,.,-2%,1%,?,-14%[46.1 µM]
COc1cc(S(=O)(=O)N2CCCCC2)ccc1NC(=O)c1ccncc1,.,6%,10%,.,1%,-17%,-1%,-13%
COc1cc(NC(=O)CN2c3cccc4cccc(c34)S2(=O)=O)cc(OC)c1OC,7%,?,-15%,-4.6%,-2%,-21%,-3%,?
O=C(/C=C1\NC2(CCCC2)Cc2ccccc21)C(=O)N/N=C/c1ccc(O)c(O)c1,10%,?,18µM*,-9.3%,-20%,17%,?,?
COc1ccccc1NC(=O)CNC(=O)Cn1cnc2sc(C)c(C)c2c1=O,.,-21%,3%,.,-6%,2%,.,.
Cc1cc(Cl)cc(C)c1OCCNCc1ccccc1,.,?,-18%,.,0%,-16%,-5%,?
CC(C)(C)NC(=O)CSc1nc(-c2ccc(F)cc2)cc(C(F)(F)F)n1,-2%,?,.,-2.6%,.,.,-3%[46.1 µM],?
CC(C)(C)NC(=O)Cn1c(SCC(=O)NCc2cccs2)nc2ccccc21,5%,15%,0%,8.2%,5%,-16%,19%,19%
Cc1ccc(N2CC(NC(=O)/C=C\c3ccc4c(c3)OCO4)CC2=O)cc1 (stereo not given),-15%,-21%,.,-3.3%,.,.,7%[46.1 µM],.
CCn1cc(CN2CCC(n3nccc3NC(=O)Cc3ccccc3)CC2)c(C)n1,.,-26%,13%,.,10%,-2%,2%,-18%
O=C(Nc1ccc(Br)cc1)C1CCN(C(=O)c2ccco2)CC1,.,?,4%,.,-4%,-16%,?,-17%[46.1 µM]
CCOC(=O)c1cc(C#N)c(C)nc1N(CC)CC,.,-11%,2%,.,0%,-6%,5.6µM*,-19%[46.1 µM]
COc1cc(C(=O)OCCN2CCCCC2)ccc1O,-8%,6%,2%,2.7%,10%,0%,3%,5%
COc1ccc(C(C(=O)NC(C)(C)C)N(C(=O)Cn2nnc3ccccc32)c2cccc(C(C)=O)c2)cc1O (stereo not given),.,5%,6%,.,0%,-15%,1%,0%[46.1 µM]
CC(Cc1cccs1)NC(=O)c1cccc(Cl)c1 (stereo not given),9%,11%,-66%,4.1%,11%,12%,-13%[46.1 µM],-19%[46.1 µM]
O=C(COC(=O)C1(c2cccc(F)c2)CCCC1)NCc1ccc2c(c1)OCO2,1%,-19%,-8%,-3.1%,-1%,2%,?,4%
O=C(c1nc2ccccc2s1)N1CCN(c2ccccn2)CC1,0%,-14%,-11%,-3.0%,-3%,?,7%,?
O=C(Oc1ccc(OC(=O)N2CCCCC2)cc1)c1ccccc1,-8%,.,13%,1.1%,-4%,1%,9%,?
COc1ccc(N2CCN(C(=O)c3cc(-c4cccs4)nc4ccccc34)CC2)cc1,.,16%,6%,.,-5%,-2%,.,11µM*
CC(C)CC(=O)NNC(=S)Nc1ccc(S(N)(=O)=O)cc1,.,2%,3%,.,0%,6%,-14%,6%[14.2 µM]
C[n+]1ccc(C(=O)N/N=C/c2ccco2)cc1,-2%,-17%,12%,-6.4%,-5%,.,1%,3%
CCOC(=O)c1ccc(NC(=O)CN(c2ccc(C)cc2)S(=O)(=O)c2ccc(OC)cc2)cc1,4%,-11%,.,-0.1%,.,.,2%[46.1 µM],?
COCCNC(=O)C(c1ccc(C)o1)N(Cc1ccc(F)cc1)C(=O)Cn1nnc2ccccc21 (stereo not given),?,36%[activator],-11%,-1.8%,10%,-2%,9%,-1%[46.1 µM]
CCOC(=O)C(C)Nc1ncnc2onc(C)c12 (stereo not given),5%,-9%,.,1.1%,.,.,20%[46.1 µM],?
CC(=O)NN1C(=O)/C(=C2/Sc3ccc(Cl)cc3N2C)SC1=S,.,4%,8%,.,1%,2%,?,23%
Cc1ccc(NCc2nnc(SCC(N)=O)o2)c(C)c1,.,-8%,6%,.,1%,1%,-4%,4%[46.1 µM]
CC(=O)c1ccc(N(C(=O)c2csnn2)C(C(=O)NC2CCCC2)c2ccccc2)cc1 (stereo not given),.,-13%,-4%,.,-1%,3%,.,3%[46.1 µM]
CSCC[C@H](NS(=O)(=O)c1ccc(C)cc1)C(=O)N1CCC(C(=O)N[C@@H](C)C(=O)O)CC1,.,-18%,-2%,.,0%,-11%,.,.
CCN(CC)c1ccc(/C=C(/C#N)c2nc3ccccc3[nH]2)c(OC(C)C)c1,?,33%[activator],0%,-0.1%,-11%,7%,.,-3%
Cc1ccc(-c2cc(-c3nnc(SCC(=O)N(C)CCC#N)n3N)c3ccccc3n2)cc1,?,37%[activator],-5%,-6.1%,1%,13%,-3%,-12%&-12%
Cc1ccc2sc(N(Cc3cccnc3)C(=O)CCS(=O)(=O)c3ccccc3)nc2c1C,-21%,-12%,.,1.7%,.,.,10%[46.1 µM],.
# Continued.
SMILES,Cruzain noTriton,StopGo reporter,NS1 inh,Cruzain Triton,SARS PLpro yeast,RE007 growth inh,LASV entry inh,MARV entry inh
COc1ccc(Cl)cc1N(CC(=O)N1CCCCC1)S(C)(=O)=O,.,-5%,-3%,.,-1%,-16%,-16%,-13%
COc1cccc(C2/C(=C(/O)c3ccc4c(c3)CC(C)O4)C(=O)C(=O)N2CC2CCCO2)c1 (stereo not given),.,-13%,15%,.,0%,17%,.,.
COc1ccc(OCCCC(=O)Nc2cccc(SC)c2)cc1,-8%,-5%,-2%,-7.7%,8%,1%,-8%,23%
COc1ccccc1/C=C/CN1CCCC(CCC(=O)NCc2ccc(F)c(F)c2)C1 (stereo not given),.,-9%,1%,.,0%,-8%,-16%[46.1 µM],?
COc1ccc(C)cc1N(C)C(=O)CCc1nc(-c2ccccc2F)no1,3%,?,.,-2.7%,.,.,?,0%[46.1 µM]
